Source: PubChem BioAssay (National Center for Advancing Translational Sciences (NCATS))
gsp antag: antagonizes gsp, the McCune-Albright syndrome mutation. Potency, µM (titrated, usually from 76.9 µM), for inactives: at the top dose activity change, negative = inhibition, actives largely listed as inhibitors. gsp-mutant cells, cAMP HTRF, 30 min; control for the full effect not named in the record. hit rate 0.4% among 340,000; active = falling curve of any shape with a large fitted effect; inconclusive = falling curve, mostly with a smaller effect; inactive = flat or rising curve; cell line not stated here;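 also: intracellular cAMP measured with PDE inhibitor Ro 20-1724 present during compound exposure; potency is read from the fitted curve at half-maximal effect; % is scaled to controls: 0 for no effect and ±100 for the full control effect; nearly all actives have a fitted effect of over 65% in size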
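HTRF cAMP read-out (cAMP-d2 plus anti-cAMP antibody-K in lysis buffer, 30 min RT). Before lysis, cells are exposed to compounds with […] for 30 min at 37C in DPBS containing Ca/Mg, BSA and Tween 20.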
TRPML1 ag: agonists of human TRPML1 channel | Q9GZU1 | TRPML1-expressing cells, Ca2+ dye fluorescence, FDSS; host cell line not named in the record; reference of the full effect not given here | hit rate 0.12% among 410,000 | activation, % (test concentration not listed); in the data active = activation above about 50%; inconclusive = about 30% to 50%; inactive = below about 30%; also: 0% is about no effect; the text of the record puts the active cut at 80%
Target sequence (Q9GZU1 whole entry, looked up): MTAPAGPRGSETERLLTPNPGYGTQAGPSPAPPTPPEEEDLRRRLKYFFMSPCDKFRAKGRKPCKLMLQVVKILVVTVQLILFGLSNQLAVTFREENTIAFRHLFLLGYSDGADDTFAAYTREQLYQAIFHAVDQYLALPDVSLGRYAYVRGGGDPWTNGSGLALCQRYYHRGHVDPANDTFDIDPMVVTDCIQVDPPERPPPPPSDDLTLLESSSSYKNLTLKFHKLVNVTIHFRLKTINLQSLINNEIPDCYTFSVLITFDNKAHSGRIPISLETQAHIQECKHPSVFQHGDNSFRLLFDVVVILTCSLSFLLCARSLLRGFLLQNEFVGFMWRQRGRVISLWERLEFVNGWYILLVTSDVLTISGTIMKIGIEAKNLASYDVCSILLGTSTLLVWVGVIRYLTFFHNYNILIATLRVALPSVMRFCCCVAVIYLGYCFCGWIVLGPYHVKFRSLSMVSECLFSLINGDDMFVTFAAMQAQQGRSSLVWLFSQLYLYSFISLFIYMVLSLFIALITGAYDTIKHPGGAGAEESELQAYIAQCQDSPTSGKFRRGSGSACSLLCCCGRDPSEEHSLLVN
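TRPML1-DL cells, Tet-induced overnight (~16 h, 37 degrees C), loaded 45-90 min at room temperature with Ca8 no-wash calcium dye plus quencher. FDSS fluorescence: 10 s baseline, compound pin-transfer, 110 s agonist read, then EC80 54-4 (4uM final) and 110 s antagonist read.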
gsp ag: gsp mutant agonism | gsp mutant cells, cAMP HTRF, 30 min; control for the full effect not named in the record | Potency, µM (series often up to 76.9 µM), for the others: at the highest dose activation (cAMP increase), actives largely listed as activators | hit rate 0.13% among 340,000; active = well fitted activation curve with a large enough effect; inconclusive = small, poorly fitted or top-dose-only effect, or another doubt; inactive = no such curve, though single readings can be large or run the other way; cell line not stated here;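 also: phosphodiesterase inhibitor Ro 20-1724 added with compounds to block cAMP breakdown; potency is read from the fitted curve at half-maximal effect; nearly all actives have a fitted effect of over 60% in size; about a fifth of the inactives were tested at one dose only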
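Cells stably selected in G418 were plated at 2000/well, grown 16-24 hr, then given compounds in DMSO with the PDE inhibitor […] (300 uM solution added) for 30 min at 37C; cAMP was read by HTRF.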
TRPML1 inh: blocks the human TRPML1 channel | Q9GZU1 | TRPML1-inducible cells, Ca2+ dye fluorescence, FDSS; hits give low values; inhibition of EC80 agonist-evoked calcium signal | activity change, negative = inhibition, % (no concentration beside the values) | hit rate 0.02% among 390,000 | AID 624415; in the data active means activity change below about -50%; inconclusive means about -30% to -50%; inactive means above about -30%;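 also: stimulus is agonist 54-4 at its EC80 concentration; % is scaled to controls: 0 for no effect and ±100 for the full control effect; compound concentration not given in the record; the text of the record puts the active cut at -80%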
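TRPML1-DL cells, Tet-induced overnight (~16 h, 37 °C) at 1,500 cells/well, were loaded with Ca8 no-wash dye plus quencher for 45-90 min at room temperature. Compounds were pinned during FDSS kinetic reading; agonist 54-4 at EC80 (4 uM final) then added.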
ClpP mod: qHTS Assay for Activators of ClpP; ATP-dependent Clp protease proteolytic subunit (Bacillus subtilis (strain 168)), P80244; purified B. subtilis ClpP, FRET peptide cleavage, 20 min; Potency, µM (doses to about 57.5 µM), for inactives: at the highest dose activity change, negative = active; hit rate 1.9% among 340,000; AID 651965, 2013; active = well fitted falling curve with a large enough effect; inconclusive = small, poorly fitted or top-dose-only effect; inactive = no such curve, though single readings can be large or run the other way; also: potency is read from the fitted curve at half-maximal effect; the source files actives as falling curves though it sought activators and does not explain the sign; nearly all actives have a fitted effect of over 65% in size; many hits overshoot -100%
Target sequence (P80244 whole entry, looked up): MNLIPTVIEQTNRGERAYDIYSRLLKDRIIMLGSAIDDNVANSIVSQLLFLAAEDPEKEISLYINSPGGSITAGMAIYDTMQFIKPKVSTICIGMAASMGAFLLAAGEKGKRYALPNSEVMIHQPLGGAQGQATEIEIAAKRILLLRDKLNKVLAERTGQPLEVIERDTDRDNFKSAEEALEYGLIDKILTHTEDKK
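Purified B. subtilis ClpP, 10 microg/mL final in Tris/HCl pH8 with KCl, BSA, glycerol and Tween-20, cleaved an Abz/nitrotyrosine-quenched decapeptide. Fluorescence (ex 320, em 430) was read at 0 and 20 min at room temperature. Delta was normalized to 5.8 microM ADEP and DMSO/no-enzyme controls.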
Menin MLL FP FL: displaces fluorescein MLL peptide from human menin. Fluorescence polarization, fluorescein-MLL peptide displacement from menin. FP activity change, % at 61.4 µM. 290,000 tested, under 10 active. AID 1766; inconclusive = falling polarisation curve, or a change in total fluorescence; inactive = total fluorescence flat and polarisation flat or rising; no compound was filed as active; the % refers to the polarisation; negative = inhibition;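 also: % of control where 0% means no effect; inhibitors lower the polarisation; unlabelled MLL peptide was the positive control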
* hit, by the source's call; u = inconclusive; x = not tested or not shown; & = joins results of further samples; [ ] = remark or other dose. The order is random (roughly 2.1% active in at least one column).

Molecule	gsp antag	TRPML1 ag	gsp ag	TRPML1 inh	ClpP mod	Menin MLL FP FL
Cc1ccccc1N=C(NOCc1ccccc1)c1nonc1N	-21%	2.4	-8%	15	46%	0.0
Cn1cc(S(=O)(=O)c2ccccc2)c(=O)c2cc(F)c(N3CCCC3)cc21	x	-0.5	x	0	-16%	x
Cc1ccccc1NC(=O)Cc1nnc(SCC(=O)N2CCN(c3ccccc3)CC2)n1C	-1%	-0.6	u	33	-29%	2.1
CC(C)(C)c1ccc(CCC2OCC(C[N+]3(C)CCOCC3)O2)cc1 (configuration not stated)	4%	0.8	-11%[15.4 µM]	9	x	0.4
O=C(CN1CCN(Cc2ccccc2)CC1)Nc1ccccc1	10%	-0.1	-1%[15.4 µM]	12	-0.1%	-0.2
Cc1cc(C)cc(Oc2ccc(S(=O)(=O)N3CCN(C)CC3)cn2)c1	14%	-0.6	-25%	10	-13%	x
O=C(CCC(=O)c1ccc(F)cc1)NCc1ccccc1C(F)(F)F	-1%	0.6	2%	-13	2.1%	4.5
CCOC(=O)c1ccc(N2C(=O)c3n[nH]c(C)c3C2c2cccc(Br)c2)cc1 (configuration not stated)	x	3.9	x	26	-3.0%	x
Cc1cnn(-c2cc(N/N=C/c3ccccc3Cl)ncn2)c1	5%	-1.0	-23%	89	1.4%	1.2
CNS(=O)(=O)c1cn(CC(=O)Nc2ccc(C)cc2C)cc1S(=O)(=O)NC	x	0.1	x	-12	0.7%	x
Oc1ccccc1/C=N/n1cnn(Cc2ccccc2Cl)c1=S	0%	0.0	23%	-9	-0.5%	5.8
COc1cc2c(cc1C1C(C#N)=C(N)OC3=C1C(=O)CC(C)(C)C3)OCO2 (configuration not stated)	-1%	x	-14%	x	2.1%	0.4
Cc1ccccc1-c1nc(CN2CCN(C(=O)c3ccco3)CC2)c(C)o1	2%	1.3	u	-7	0.1%	0.2
Cc1ccc(Sc2c(C)nn(C(=O)c3cccc(S(=O)(=O)N4CCOCC4)c3)c2C)cc1	u	2.2	8%	-9	u	2.6
CCc1ccc(-c2cc(C(=O)N/N=C/c3c[nH]c4ccccc34)[nH]n2)cc1	-4%	0.6	-6%	5	-29%	-2.2
CCOC(=O)C1CCCN(C(=O)CCc2nc3sc4c(c3c(=O)[nH]2)CCCC4)C1 (configuration not stated)	-5%	0.3	0%	0	-1.9%	x
CCN(CC)CC1C(=O)N(c2ccc(OC)cc2)C1c1ccccc1 (configuration not stated)	12%	0.9	-20%	-4	x	-3.5
O=C(c1ccc(Cl)cc1)c1ccc(Oc2cc(NN3CCCCC3)c([N+](=O)[O-])cc2[N+](=O)[O-])cc1	1%	1.8	-19%	10	1.9%	2.9
Fc1ccccc1OCCCCN1CCCCC1	7%	0.3	24%	-5	1.1%	0.0
COc1ccc(/C=C(\C#N)C(=O)NCc2ccccc2)cc1O	-8%	2.5	-28%	6	x	8.1
Cc1cc(NC(=O)c2ccc3c(c2)OCCO3)no1	4%	-0.3	-16%	-6	-7.7%&-4.5%	2.4
O=C(Nc1ccc(Br)cc1)c1cccc(S(=O)(=O)Nc2ccccn2)c1	-16%	-0.3	-15%[15.4 µM]	89	u	x
CCn1c(COc2ccccc2)nnc1SCc1ccc(C#N)cc1	-9%[15.4 µM]	1.6	0%	-1	-3.1%	3.7
O=C(COc1ccc(S(=O)(=O)NC2CCCCC2)cc1)N1CCN(c2cccc(Cl)c2)CC1	u	0.6	-25%	-2	0.7%	3.6
CC(=O)Nc1cccc(/C(C)=N/NS(=O)(=O)c2ccccc2)c1	3%	-0.1	17%	-9	x	-1.2
O=C(CCl)Nc1cccc(S(=O)(=O)NC2=NCCCCC2)c1	0%	-0.4	-13%	-11	-2.5%	x
COc1cccc(C(C)NC(=O)Nc2ccccc2Cl)c1 (configuration not stated)	3%	5.3	-1%	3	-1.9%	0.5
CC(=O)n1cc(/C=N/NC(=O)c2ccccc2O)c2ccccc21	-13%	0.0	8%	11	-7.4%	-0.1
Cc1cc(C)n(CC(=O)N2CCCC(N3CCN(Cc4ccc5c(c4)OCO5)CC3)C2)n1 (configuration not stated)	-3%	0.0	21%[15.4 µM]	-7	-1.1%	x
COc1ccc(-c2nc(C#N)c(N3CCOCC3)o2)cc1OC	2%	-1.2	-30%	12	48%	5.7
Cc1cc(C)n(CC(=O)NNC(=O)c2ccc(OC(F)(F)F)cc2)n1	5%	0.1	22%	1	x	x
CC(C)Nc1ccccc1	5%	-0.6	x	1	0.8%	x
Cc1nc2c(-c3ccc(F)cc3)c(C)nn2c(C)c1CCC(=O)NCCN1CCOCC1	-8%	0.1	3%	9	-1.7%	-1.9
Cc1ccc(CNC(=O)CSc2nc(=O)n3ccccc3n2)cc1	11%	-0.2	20%[15.4 µM]	15	4.1%	x
N#Cc1cccc(NC(=O)CCNS(=O)(=O)c2ccc3c(c2)CCN3C(=O)C2CC2)c1	x	0.3	x	-28	-4.1%	x
Fc1cccc(Nc2ncnc3[nH]ncc23)c1	-2%	-0.4	7%	14	-1.2%	1.6
C=CCCCCCCCCc1nc(SCC(C)=O)n[nH]1	-6%	2.6	-2%	-23	0.6%	6.3
COc1ccc(Cl)cc1NC(=O)CN(C)C(=O)C1CC1	1%	0.2	-3%	-5	-2.7%	x
COc1cc(CCC(=O)NCc2ccc(F)cc2)cc(OC)c1OC	-8%	-1.0	29%[15.4 µM]	1	-0.3%	3.8
Cc1ccc(S(=O)(=O)NCC(=O)N(CC(=O)NCc2ccco2)Cc2ccco2)cc1	-8%	-0.5	4%	-10	-0.6%	2.7
Nc1nc(SCC(=O)N2CCc3ccccc3C2)[nH]c(=O)c1-c1ccccc1	-4%	0.5	15%	-11	-1.0%	-0.6
C=CCN1C(=O)C2C(C(=O)NCc3ccccc3)C3C=CC2(O3)C1C(=O)NC(C)(C)C (configuration not stated)	2%	0.9	11%	-13	1.1%	-6.9
O=C1c2cccc3cccc(c23)C(=O)C1(O)O	-14%	-0.7	8%[15.4 µM]	2	u	x
Cc1cccc(NC(=S)NC(=O)c2ccco2)n1	13%	0.0	2%[15.4 µM]	6	-13%	3.1
CCOC(=O)c1cc2c(=O)n3ccccc3nc2n(CCCOC)c1=NC(=O)C(C)(C)C	-13%	1.2	22%	3	28µM*	2.3
Cc1cccc(-c2nc(NCCCN3CCOCC3)c3ccccc3n2)c1	-3%	1.1	30%	-9	1.4%	u
Nn1cnnc1N/N=C/c1cccc(Cl)c1Cl	3%	-0.9	-21%[15.4 µM]	11	x	0.7
Cc1nn(Cc2ccc(Cl)cc2Cl)c(C)c1NC(=O)Cn1nc([N+](=O)[O-])c(Cl)c1C	0%	-0.1	-5%	3	-0.6%	1.6
COC(=O)CCc1ccc(OCC(O)CNC(C)C)cc1 (configuration not stated)	11%	0.7	x	-11	-12%	x
Cc1c(C(=O)O/N=C(\N)c2ccccn2)cccc1[N+](=O)[O-]	0%	0.8	-7%[15.4 µM]	4	x	-0.8
CCN(CC)C(=O)COC(=O)c1cc(-c2ccco2)nc2ccccc12	-5%	0.7	1%[15.4 µM]	0	x	0.1
CCc1ccc(NC(=O)Cn2c(=O)n(CCC(=O)NC3CCN(Cc4ccccc4)CC3)c(=O)c3ccccc32)cc1	3%	-0.7	-27%	-6	-1.5%	-0.4
COc1ccc(NS(=O)(=O)c2ccc(C)c(C(=O)N(C)CCc3ccc(OC)c(OC)c3)c2)cc1	4%	-0.6	-19%	-2	-0.2%	x
CC[N+]1(C)CC2CCC(C)(C1)C2(C)C (configuration not stated)	7%	0.3	19%	-18	2.2%	0.7
O=C(CC(=O)Nc1ccccc1F)Nc1ccc2nc3n(c(=O)c2c1)CCCCC3	x	-0.8	x	-1	-6.1%	x
CCOc1ccc(-c2nnn(CC(=O)N3CCCC(C)C3)n2)cc1 (configuration not stated)	-6%	0.2	-30%	7	0.3%	1.4
COc1ccc(OCC(O)CN2CCc3ccccc3C2)cc1 (configuration not stated)	10%	-0.8	u	4	0.2%	3.5
CC1(C)CC(=O)C2=C(C1)N(CC1CCCO1)C(=O)NC2(C(F)(F)F)C(F)(F)F (configuration not stated)	-1%	0.9	-9%	8	1.0%	-0.7
COc1ccc(-c2cc(C(=O)Oc3ccc(C)cc3)c3ccccc3n2)cc1	x	0.3	x	32	3.9%	x
N#Cc1cn(CC(=O)N2CCCc3ccccc32)c2ccccc12	-12%	-0.6	-39%[inhibitor]	-29	-2.3%	-0.4

Carrying on.
Molecule	gsp antag	TRPML1 ag	gsp ag	TRPML1 inh	ClpP mod	Menin MLL FP FL
Cc1ccc(C)n1-c1ccc(N2CCOCC2)c(Br)c1	-4%	-0.5	1%	16	2.0%	9.5
CCOC(=O)CC1(NC(=O)c2cc(COc3cncc(Cl)c3)on2)CCCCC1	-12%	-0.2	2%	44	0.4%	x
Cc1cccc(C(=O)OCC(=O)Nc2nnc(-c3ccccc3)o2)c1O	1%	-1.0	1%	6	-6.9%	x
CCCc1cc(=O)oc2cc(C)c3c(-c4ccccc4)coc3c12	x	1.1	x	1	20µM*	x
Cc1onc(-c2c(Cl)cccc2Cl)c1C(=O)Nc1ccc2c(c1)OCCO2	-3%	0.1	3%	2	-1.9%	0.1
CCCCNC(=O)COC(=O)CCC(=O)c1ccc(Cl)cc1	7%	0.2	u	-14	-1.6%	-7.8
CSc1cccc(NC(=O)CCCOc2ccc(Cl)cc2C)c1	2%	5.1	0%	-2	1.0%	0.9
N#Cc1ccc(OCC(=O)NC2=NCCS2)cc1	x	-0.3	-1%[15.4 µM]	44	x	-0.7

Part of the list above in order of molar mass, ascending.
Molecule	gsp antag	TRPML1 ag	gsp ag	TRPML1 inh	ClpP mod	Menin MLL FP FL
CCCc1cc(=O)oc2cc(C)c3c(-c4ccccc4)coc3c12	x	1.1	x	1	20µM*	x
CSc1cccc(NC(=O)CCCOc2ccc(Cl)cc2C)c1	2%	5.1	0%	-2	1.0%	0.9
CCOC(=O)CC1(NC(=O)c2cc(COc3cncc(Cl)c3)on2)CCCCC1	-12%	-0.2	2%	44	0.4%	x
